Bioassay records as filed in PubChem.
GIV-Gai inh – blocks GIV peptide binding to rat Galpha-i3; P08753; Galpha-i3/FITC-GIV peptide fluorescence polarization, 90 min; hits give low values; scaled: aluminum fluoride 0%, vehicle 100%; percent of control (FP), % (test concentration not listed); actives 0.42% (n = 210,000); AID 1224905;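 active means replicate mean at 85% of control or lower, very high polarization wells dropped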;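 further: wells of about 15 µL received 100 nL stock; the first replicate is given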
Target sequence (P08753 whole entry, looked up): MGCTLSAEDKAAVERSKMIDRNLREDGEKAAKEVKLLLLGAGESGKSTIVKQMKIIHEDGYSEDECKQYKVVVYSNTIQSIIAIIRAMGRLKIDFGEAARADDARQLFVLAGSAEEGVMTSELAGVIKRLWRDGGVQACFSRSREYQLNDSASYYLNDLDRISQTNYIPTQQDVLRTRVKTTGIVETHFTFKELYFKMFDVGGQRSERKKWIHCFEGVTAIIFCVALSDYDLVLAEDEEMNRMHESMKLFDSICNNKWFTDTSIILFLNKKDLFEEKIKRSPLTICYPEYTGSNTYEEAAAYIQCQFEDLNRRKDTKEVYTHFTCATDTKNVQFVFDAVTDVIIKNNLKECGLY
An asterisk follows results filed as active.

molecule,GIV-Gai inh
COc1ccc(C2=NC(C(F)(F)F)(C(F)(F)F)N=C(N3CCCCC3)O2)cc1,112.8
COc1ccc(C(=O)NC(c2ccccc2OC)c2cc(Cl)c3cccnc3c2O)cc1 (centres undefined),95.2
Cc1ccc(-c2nnc(NC(=O)CN3CCN(S(=O)(=O)c4ccc(C(C)C)cc4)CC3)s2)cc1,102.6
CC(C)CCOc1ccc(C(=O)CCNC(Cc2c[nH]c3ccccc23)C(=O)O)cc1 (centres undefined),105.1
COc1ccc(-c2n[nH]c(CCNC(=O)Nc3ccc(C)c(C)c3)n2)cc1,105.7
CC(=O)N1CCC(C(=O)NCc2ccccc2)(N(Cc2ccc(Cl)cc2)C(=O)c2ccc(C)cc2)CC1,108.1
CCC(C)NC(=O)N1CCC2(CC1)Nc1cc(OC)ccc1-n1cccc12 (centres undefined),106.9
O=C(Nc1ccncc1)c1ccc(N2CC3CC(C2)c2cccc(=O)n2C3)c(NC(=O)c2cc3ccccc3oc2=O)c1 (centres undefined),105.4
O=C(Nc1ccc2c(c1)OCO2)c1cccc(Nc2ncc(-c3ccc(F)cc3)cn2)c1,106.3
CCN(CC)C(=O)c1cnn2c3c(cnc12)CCCCCC3,105.9
N#Cc1c(SCC(=O)c2ccccc2)nc2c(c1-c1cccnc1)CCCC2,104.3
CCOc1ccc(NC(=O)CSc2nc3ccccc3c(=O)n2CCC(=O)NCCc2ccc(OC)c(OC)c2)cc1,108.9
CN(Cc1ccccc1)C(=O)CSc1nc2cc(C(=O)N3CCC(C(N)=O)CC3)ccc2c(=O)n1-c1ccccc1,108.5
CCSc1nnc(NC(=O)CSc2nnc(CNC(=O)COc3ccc(Cl)cc3)n2-c2ccc(F)cc2)s1,103.4
COc1ccc(CCNC(=O)CCCn2c(SCC(=O)Nc3cc(C)on3)nc3ccccc3c2=O)cc1OC,111.4
c1ccc(-c2csc3ncnc(N4CCN(c5ccccc5)CC4)c23)cc1,101.7
COc1ccc2[nH]c3c(c(=O)c2c1)CN(CC(=O)NCc1ccc2c(c1)OCO2)CC3,108.4
Cc1cccc(C)c1NC(=O)C1(N(Cc2ccccc2)C(=O)c2ccccc2O)CCC(C(C)(C)C)CC1 (centres undefined),111.6
COc1ccc(C2C3CN(C)CC=C3C(C#N)=C(N)C2(C#N)C#N)cc1 (centres undefined),133.3
Cc1ccc(N2C(=O)C3C(c4ccc(Cl)cc4Cl)OC4(C(=O)c5ccccc5C4=O)C3C2=O)cc1 (centres undefined),113.5

(further entries)
molecule,GIV-Gai inh
O=C(CNS(=O)(=O)c1cc(-c2noc(C3CCC3)n2)cs1)Nc1ccc(F)cc1,99.3
Cc1nn(-c2ccccc2)c2sc(C(=O)NCCN(C)C3CCCCC3)cc12,98.5
CCCCN(CC)Cc1c(O)ccc2c3c(c(=O)oc12)CCC3,111.2
Cc1nc(-c2ccc(-c3noc(-c4ccc5c(c4)OCO5)n3)cc2)cs1,105.4
O=C(NCC1CCCO1)c1ccccc1NC(=O)c1nsc2ccccc12 (centres undefined),102.3
CC1(C)CN(CC(=O)N2CCCC2)c2ccc(S(=O)(=O)NC3CC3)cc21,99.0
O=S(=O)(c1ccc(F)cc1)N1CCOc2ccc(COCc3cccc(F)c3)cc2C1,100.4
COc1ccccc1NC(=O)Cn1cnc2sc(C(=O)Nc3ccc(Oc4ccccc4)cc3)c(C)c2c1=O,101.9
CNC(=O)C1CCCN(Cc2cccs2)C1 (centres undefined),99.4
COc1ccc(NS(=O)(=O)c2cc(-c3nc(-c4ccc(Cl)cc4)no3)cs2)cc1OC,99.5
Cc1cccc(-c2cncc(C(=O)Nc3ccc(C)cc3C)c2)c1,101.4
Cc1nnc(-c2csc(S(=O)(=O)N3CCC(C)CC3)c2)o1,103.1
COc1cc(NS(=O)(=O)c2ccc(Cl)c(C(=O)Nc3ccc([N+](=O)[O-])cc3)c2)c(OC)cc1Cl,109.2
O=S(=O)(c1cn(Cc2noc(-c3cc4cc(Cl)ccc4[nH]3)n2)cn1)N1CCCCC1,106.0
COc1ccc2c3c1OC1CC(O)C=CC31CCN(C)C2 (centres undefined),105.9
O=C(NCC1CCCO1)C1(c2ccc(NS(=O)(=O)c3ccc(C4CCCCC4)cc3)cc2)CC1 (centres undefined),102.5
Cc1ccc(N2C(=O)C(C)SC23C(=O)N(CN2CCN(C(c4ccccc4)c4ccccc4)CC2)c2ccccc23)cc1Cl (centres undefined),113.3
Cc1ccc(-c2nc3s/c(=C/c4ccc(Cl)cc4)c(=O)n3n2)cc1,109.3
N#CC1=C(N)C(C#N)(C#N)C(c2cccc(F)c2)C2CCCC=C12 (centres undefined),111.4
COc1ccc(C(C)=O)cc1CSc1nc2ccccc2c(=O)n1NC(=O)CCc1c[nH]c2ccccc12,117.9

Carrying on:
molecule,GIV-Gai inh
O=C(Nc1ccc2c(c1)OCCO2)N1CCCN(c2nc3ccccc3n3cccc23)CC1,98.5
O=[N+]([O-])c1ccc(C2=NN(c3ccccc3)C3(S2)c2ccccc2C(c2ccc(Cl)cc2)=NN3c2ccccc2)cc1 (centres undefined),101.1
Cc1ccc(NC(=O)CSc2ncccc2C(=O)O)cc1Cl,107.8
CC12CC(c3ccccc3)C(C#N)(C(=N)O1)C2(C#N)C#N (centres undefined),128.5
COc1ccc(OC)c(NC(=O)/C=C/C(=O)O)c1,109.0
COC(=O)COc1ccc(C2C3=C(CC(C)(C)CC3=O)OC3=C2C(=O)CC(C)(C)C3)cc1OC,104.7
COc1cc2c(cc1OC)C(C(Cl)(Cl)Cl)OC2=O (centres undefined),105.6
CSC1=NC(=Nc2ccccc2C)C2(CCC(C(C)(C)C)CC2)N1c1ccc(NC(C)=O)cc1 (centres undefined),105.1
CCOc1cccc(CN2C(=O)c3ccccc3CC2(C)C(=O)NCc2ccccc2OC)c1 (centres undefined),105.2
Cc1ccc(CNS(=O)(=O)c2ccc(-c3cnc(C)o3)s2)o1,103.5
CCC(=O)Nc1ccc(-c2cc(C(=O)Nc3ccc(OC)c(OC)c3)c3ccccc3n2)cc1,108.9
Cc1ccc(C(=O)Nc2cnc3oc(-c4ccc(C(C)C)cc4)nn3c2=O)cc1,104.4
OCCNCC(O)Cn1c2ccc(Cl)cc2c2cc(Cl)ccc21 (centres undefined),102.3
COc1ccc(C(=O)N2c3c(OC)cccc3-c3c(ssc3=S)C2(C)C)cc1,121.1
CCOC(=O)C1=C(O)/C(=C/c2cccc(O)c2)SC1=Nc1ccc([N+](=O)[O-])cc1,109.1
O=C(Nc1ccc2c(c1)S(=O)(=O)c1cc(NC(=O)C34CC5CC(CC(C5)C3)C4)ccc1-2)C12CC3CC(CC(C3)C1)C2,118.7
Cc1ccc(S(=O)(=O)Cc2nc(-c3ccccc3)no2)cc1,101.6
N#Cc1ccc(CN2CCC(C(O)c3ccccc3)CC2)cc1 (centres undefined),97.3
CCCN(CCC)C(=O)c1c[nH]c2ccc(S(=O)(=O)N(C)c3ccc(Br)cc3)cc2c1=O,101.8
CCOc1cccc2c1N(C(=O)c1ccc(Cl)cc1Cl)C(C)(C)C(=S)C2=C1SC(C(=O)OC)=C(C(=O)OC)S1,117.3

Two of these compounds in a different format.
O=C(Nc1ccc2c(c1)S(=O)(=O)c1cc(NC(=O)C34CC5CC(CC(C5)C3)C4)ccc1-2)C12CC3CC(CC(C3)C1)C2
- GIV-Gai inh = 118.7
Cc1ccc(S(=O)(=O)Cc2nc(-c3ccccc3)no2)cc1
- GIV-Gai inh = 101.6

The results go on.
molecule,GIV-Gai inh
Cc1cc2c(cc1S(=O)(=O)N(C)CC(=O)Nc1nccs1)OC(C)C(=O)N2 (centres undefined),104.7
COc1ccc(N2CCN(C(=O)Cn3ccc4c(SCc5ccc(F)cc5)nccc43)CC2)cc1,101.5
CCCc1cc(Sc2ccc(NC(C)=O)cc2)n2ncnc2n1,101.9
COc1ccc([N+](=O)[O-])cc1C1=N/C(=C\c2ccc(OC)c(OC)c2OC)C(=O)O1,107.0
COc1ccc(C2(O)CN(c3ccc(Br)cc3)C3=[N+]2CCCS3)cc1OC (centres undefined),100.2
Cc1[nH]n(-c2ccccc2)c(=O)c1C(c1ccccc1[N+](=O)[O-])c1c(C)[nH]n(-c2ccccc2)c1=O,100.1
COc1ccc(C(=O)Nn2c(SCC(=O)NC3CCCCC3)nc3ccccc3c2=O)cc1,102.5
CCOc1ccc(C(=O)Nc2ccc(S(=O)(=O)N3CCCCC3c3cccnc3)cc2)cc1OCC (centres undefined),113.4
CC1=C(C(=O)Nc2ccccc2C)C(c2ccco2)C(C#N)=C(SCC(=O)Nc2cccc(Cl)c2C)N1 (centres undefined),108.7
Cc1ccc(S(=O)(=O)N(CC(O)CN2CCCC2)c2ccccc2)cc1 (centres undefined),110.2
CCOc1ccc(-n2nnnc2CNC(=O)Nc2ccc(Cl)cc2)cc1,98.7
CCOC(=O)C1CCN(c2cc(NCCCO)c([N+](=O)[O-])c3nonc23)CC1,101.7
CCOc1ccc(CN2CCCC2c2c(C)noc2C)cc1OCC (centres undefined),109.4
COC(=O)CSc1ccc2c3c(cccc13)C(=O)c1ccccc1-2,67.7*
Cc1ccc(-c2csc(/C(C#N)=C3/CCCC(C)C3)n2)cc1 (centres undefined),104.2
Cc1ccc(NC(=O)Cn2cnc3sc(C(=O)N4CCC(C(N)=O)(N5CCCCC5)CC4)c(C)c3c2=O)cc1Cl,122.7
O=C(CSc1nc2ccccc2c(=O)n1CC1CCC(C(=O)NCC2CCCO2)CC1)NCCC1=CCCCC1 (centres undefined),104.9
CC1=C(C(=O)N2CCOCC2)C(c2cc(Br)ccc2F)C2=C(CC(C)(C)CC2=O)N1 (centres undefined),101.7
O=C(NC1CCCC1)c1nc(-c2ccc(S(=O)(=O)N3CCCCC3)cc2)no1,110.2
CCCc1oc2ccc(NS(=O)(=O)c3ccc(F)cc3)cc2c1C(=O)OCC,101.9

More compounds.
molecule,GIV-Gai inh
Cc1cccc(NC(=O)c2sc3nc(C)nc(N4CCN(C)CC4)c3c2C)n1,113.1
CCOc1ccc(NC(=O)c2cc(S(=O)(=O)N3CCN(c4cccc(Cl)c4)CC3)ccc2F)cc1,103.6
COc1ccc(NC(=O)c2nnc(C3CCN(C(=O)Nc4ccc(C)c(C)c4)CC3)s2)cc1,99.8
COc1cc(/C=C2\N=C(c3ccccc3)N(c3ccccc3)C2=O)cc(OC)c1OC,112.7
CC(C)n1nc2c(S(=O)(=O)N3CCOCC3)cccn2c1=O,105.2
Cc1ccc(C2CCCCCN2C(=O)Nc2ccc3c(c2)OCCO3)s1 (centres undefined),108.8
O=c1[nH]c(-c2cc(Br)ccc2OCc2ccccc2F)nc2sc3c(c12)CCCC3,103.1
COc1cc(CN2CCCC2c2cc(C(C)C)on2)cc(OC)c1 (centres undefined),97.8
CC(=O)Nc1ccc2nc(N3CCC(C(=O)Nc4cc(C)cc(C)c4)CC3)cc(C)c2c1,103.1
O=C(N[C@H](Cc1ccccc1)C(=O)NCc1cscn1)C1CC1,105.2
NC(=O)C1CCN(C(=O)c2ccc3c(=O)n(-c4ccccc4)c(SCc4cccc(F)c4)nc3c2)CC1,114.4
O=C(c1ccoc1)N1CCCN(Cc2cccs2)CC1,104.8
Cc1ccc(C)c(CSc2nnc3c(=O)n(-c4cc(Cl)ccc4C)ccn23)c1,105.9
Cc1noc(C)c1C1CCCN1C(=O)c1ccco1 (centres undefined),96.6
O=C(C1CCN(S(=O)(=O)c2ccc(-c3noc(-c4ccc(Br)cc4)n3)cc2)CC1)N1CCCC1,109.6
O=C(NCc1nnc(SCC(=O)N2CCc3ccccc32)n1-c1cccc(C(F)(F)F)c1)c1cccs1,117.5
Cc1cccc(C(=O)Nc2ccc3nc(SCC(=O)Nc4c(C)n(C)n(-c5ccccc5)c4=O)sc3c2)c1,119.2
CC(C)OCCCNc1nc(Nc2ccc3c(c2)OCO3)c2cnn(-c3ccccc3)c2n1,102.4
CCOC(=O)C1CCCN(S(=O)(=O)c2ccc(-c3ccno3)s2)C1 (centres undefined),99.3
CCc1ccc(N/C(SCc2ccc(Cl)cc2)=C(/C#N)C(N)=O)cc1,108.6

Continuation:
molecule,GIV-Gai inh
CCOC(=O)CSCC(=O)N1c2cc(C)c(C)cc2-c2c(ssc2=S)C1(C)C,110.1
O=C(Nc1cc(F)c2nc(N3CCCC3)ccc2c1)c1cccc(Cl)c1,110.3
COc1cccc2c1OC(c1ccc(SC)cc1)N1N=C(c3ccc(F)cc3)CC21 (centres undefined),104.1
Cc1nc(CN2C(=O)COc3ccc(S(=O)(=O)N(C)Cc4ccccc4)cc32)no1,106.6
CCNc1cc(Nc2ccccc2)c2c3c(onc13)-c1ccccc1C2=O,104.1
CCOC(=O)c1[nH]c(C)c(CCC(=O)N2CCCC(C(=O)NCCCN3CCN(C)CC3)C2)c1C (centres undefined),101.6
Cc1[nH]n(-c2c(Cl)cc(Cl)cc2Cl)c(=O)c1C=Nc1cccc(Cl)c1Cl,116.2
CCOc1ccc(NC(=O)CSc2nc3[nH]ncc3c(=O)n2-c2ccc(Cl)cc2Cl)cc1,107.1
CCOC(=O)C1CCN(CN2C(=O)C3(SC(C)C(=O)N3c3ccc(Cl)cc3)c3ccccc32)CC1 (centres undefined),128.9
Cc1ccc(-c2csc(=Nc3ccccc3)n2CCc2ccccc2)cc1,110.2
COCc1cc(C)nc(SSc2nc(C)cc(COC)c2C#N)c1C#N,104.5

Ordered by the number under GIV-Gai inh (ascending): three of the compounds above
SMILES | GIV-Gai inh
O=S(=O)(c1cn(Cc2noc(-c3cc4cc(Cl)ccc4[nH]3)n2)cn1)N1CCCCC1 | 106.0
O=C(C1CCN(S(=O)(=O)c2ccc(-c3noc(-c4ccc(Br)cc4)n3)cc2)CC1)N1CCCC1 | 109.6
CCOC(=O)CSCC(=O)N1c2cc(C)c(C)cc2-c2c(ssc2=S)C1(C)C | 110.1

A portion of the library, so the mix of outcomes need not match the whole.
